VDR inh: Inhibitors of the vitamin D receptor (VDR): qHTS. Potency, µM, for the others: max response, negative = inhibition, usual class: inhibitors. 0.93% of 400,000 active. VDR-SRC2-3 peptide fluorescence polarization, 2 h; active = well fitted inhibition curve with a large enough effect; inconclusive = small, poorly fitted or top-dose-only effect, or another doubt; inactive = no such curve, though single readings can be large or run the other way; also: series mostly up to about 120 µM
Target sequence (P11473 whole entry, looked up): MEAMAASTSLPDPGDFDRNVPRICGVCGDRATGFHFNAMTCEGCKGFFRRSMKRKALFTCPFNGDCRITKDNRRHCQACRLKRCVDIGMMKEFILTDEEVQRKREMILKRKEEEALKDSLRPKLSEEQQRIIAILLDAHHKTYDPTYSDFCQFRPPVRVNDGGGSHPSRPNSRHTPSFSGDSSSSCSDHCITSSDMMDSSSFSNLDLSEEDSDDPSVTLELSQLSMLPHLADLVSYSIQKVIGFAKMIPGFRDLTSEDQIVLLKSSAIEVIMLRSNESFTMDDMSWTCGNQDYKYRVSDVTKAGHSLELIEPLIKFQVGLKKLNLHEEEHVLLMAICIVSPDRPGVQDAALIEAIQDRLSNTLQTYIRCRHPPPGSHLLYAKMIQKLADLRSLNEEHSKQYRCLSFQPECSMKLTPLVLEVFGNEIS
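Signal is fluorescence polarization, reporting how far test compounds block the interaction of VDR with the SRC2-3 coregulator peptide after a 2 h room-temperature incubation.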
* hit, by the source's call; ? = inconclusive; & = joins results of further samples. % is scaled to controls: 0 for no effect and ±100 for the full control effect; potency is read from the fitted curve at half-maximal effect. Not all compounds are listed; count on the stated rates, not on these rows.

SMILES	VDR inh
Cc1ccc2nc3c(cc(C(=O)NC4CCCCC4)c(=N)n3C(C)C)c(=O)n2c1	-9.3%
COc1ccc2c(c1)CCCC21NC(=O)N(CC(=O)NC(=O)NCc2ccccc2)C1=O (configuration not stated)	-11.7%
CCc1ccc(CN2CCc3nc(N4CCN(c5ccccc5F)CC4)ncc3C2)cc1	7.7%
CCCN(CCC)C(=O)c1ccc2c(=O)n(Cc3ccco3)c(=S)[nH]c2c1	4.1%
CCOc1ccc(OCC)c(NC(=O)C2COc3ccccc3O2)c1 (configuration not stated)	-0.3%
CCOc1ccccc1NC(=O)c1ccoc1C	-10.3%
COc1ccc(CNC(=O)Cn2nnc3ccccc3c2=O)cc1	-23.7%
CCCn1c(SCC(=O)N(C2CCCCC2)C2CCS(=O)(=O)C2)n[nH]c1=O (configuration not stated)	?
COc1ccc(S(=O)(=O)N2CCOCC2)cc1NC(=O)CC1CCCC1	-1.3%
CSc1ccccc1NC(=O)CN(C)Cc1cccc(Cl)c1	-5.0%
Cc1ccc(C(=O)c2oc3ccccc3c2NC(=O)COc2ccccc2Cl)cc1	6.6%
O=[N+]([O-])c1ccccc1/C=N/n1c(-c2cccnc2)n[nH]c1=S	-2.7%
O=C(O)c1ccccc1NC(=O)C1C2C=CC(C2)C1C(=O)O (configuration not stated)	-5.7%
Cc1ccc(Cl)cc1N1CCN(Cc2nc3c(c(=O)[nH]c(=O)n3C)n2Cc2ccccc2F)CC1	-14.4%
COc1ccc(NC(=O)Nc2ccc3[nH]ccc3c2)cc1	-7.4%
COCCNC(=O)CNC(=S)N(Cc1ccccc1)Cc1cccnc1	-10.6%
COc1cccc(/C=C2\CCCCC2=O)c1	-5.2%
CC(=O)Nc1ccc(OC(C)=O)cc1	16.1%
COc1ccc(/C(C)=N\Nc2nc(-c3ccccc3)cc(=O)[nH]2)cc1	-12.1%
O=c1oc2ccccc2c(CNc2ccccc2)c1[N+](=O)[O-]	0.8%
CSCCC(NC(=O)OC(C)(C)C)C(=O)NC(C(=O)NC(CC(C)C)C(N)=O)C(C)C (configuration not stated)	-22.2%
O=C(NCCC(=O)N1CCc2ccccc21)c1ccccc1Cl	-6.0%
CSc1nc(SCC(=O)NCC2CCCO2)c2c3c(sc2n1)CN(C)CC3 (configuration not stated)	3.7%
C=CCn1c(O)c(N=NC(=O)C(O)c2ccccc2)c2ccccc21 (configuration not stated)	2.1%

2 entries from above in another layout:
VDR inh	smiles
-10.6%	COCCNC(=O)CNC(=S)N(Cc1ccccc1)Cc1cccnc1
3.7%	CSc1nc(SCC(=O)NCC2CCCO2)c2c3c(sc2n1)CN(C)CC3 (configuration not stated)

Further records.
SMILES	VDR inh
CNc1nc(SC)nc2ccsc12	0.6%
Cc1nn(-c2ccccc2)c(C)c1/C=C/C(=O)OCC(=O)Nc1ncc(C(F)(F)F)cc1Cl	-13.0%
Cc1cc(N2C(=O)C(=O)/C(=C(/O)c3ccc(Cl)cc3)C2c2cccc(Br)c2)no1 (configuration not stated)	-0.1%
Cc1cc(C)cc(NCc2ccncc2)c1	-16.2%
COC(=O)c1ccc(C(=O)OC)c(NC(=O)COC(=O)C2CCC(C(C)(C)C)CC2)c1 (configuration not stated)	-1.6%
COc1ccc(CNC(=O)c2cc3cc(C)ccc3n2C)cc1	-0.1%
CC(=O)NC(CC(=O)Nc1ccc(S(=O)(=O)NC2=NCCCCC2)cc1)c1ccccc1 (configuration not stated)	5.0%
CCN(C(=O)CSc1n[nH]c(-c2ccc(OC)cc2)n1)c1c(N)n(Cc2ccccc2)c(=O)[nH]c1=O	11.4%
COC(=O)c1c(NC(=O)C2c3ccccc3Oc3ccccc32)sc(C)c1C	9.4%
Cc1ccccc1NC(=O)CN1C(=O)C2C3CC(C(Br)C3Br)C2C1=O (configuration not stated)	79.4µM*
Cc1ccc(Cl)cc1N1CCN(C(=O)CCS(=O)(=O)c2cc(Br)cc3c2N(C(=O)C2CC2)CC3)CC1	-8.3%
CCOC(=O)CSC1=C(C#N)C(c2ccccc2)C(C(C)=O)=C(C)N1 (configuration not stated)	40.5%
CCOc1cc(Cl)c(NC(=O)c2ccco2)cc1OCC	-3.3%
COc1ccc(NC(=S)Nc2ccc(C)c(Cl)c2)cc1OC	-25.4%
CCc1cc2c(cc(C(=O)OC)n2Cc2nc(-c3ccc(C)cc3)oc2C)s1	?
O=C(Cn1cnc2c(cnn2-c2ccccc2)c1=O)OCc1ccccc1	-13.6%
Cc1nc(SCC(=O)Nc2ccccc2C(F)(F)F)c2c(=O)n(C)c(=O)n(C)c2n1	-5.7%
CC(C)(C)C(=O)CSc1nc(N)cc(=O)[nH]1	-11.4%
COc1ccc(N2CCN(C(=O)COC(=O)c3ccc(CSC)o3)CC2)cc1	5.9%
CC(C)(C)OC(=O)N1CCC[C@@H]1CO	-2.0%&-10.8%
CCOc1ccc(CCNC(=O)COC(=O)c2ccc(OC(C)C)cc2)cc1OCC	-0.5%
COc1ccccc1CC(=O)NCCN1CCCCC1	-12.5%
O=S(=O)([O-])CCC[n+]1c(SCCCS(=O)(=O)O)sc2ccc(Cl)cc21	?
Cc1cc(Br)ccc1SCC(=O)N1CCN(S(=O)(=O)c2ccccc2)CC1	-17.1%
CC1CCCCC12NC(=O)N(CC(=O)OCC(=O)Nc1ccc(F)cc1[N+](=O)[O-])C2=O (configuration not stated)	-3.4%
COC1=CC(=Cc2c(N)n3nc(CC(=O)N4CCCCC4)sc3nc2=O)C=C(OC)C1=O	1.5%
Cc1ccc2[nH]c(=O)c(CN(Cc3cccs3)Cc3nnnn3Cc3ccco3)cc2c1	?
O=C(NCc1cccnc1)C1c2ccccc2C(=O)N1C1CCCCCC1 (configuration not stated)	12.9%
Cc1cn(-c2ccccc2)c(C)c1/C=N\Nc1nc(N2CCOCC2)nc(N2CCOCC2)n1	-2.0%
N/C(=N\c1nc2ccccc2o1)NC(=O)C(Cc1ccccc1)N1C(=O)c2ccccc2C1=O (configuration not stated)	21.1%
O=[N+]([O-])c1ccc(C2CCCC/C2=N/OCc2ccccc2F)c([N+](=O)[O-])c1 (configuration not stated)	-4.4%
Cc1nn(Cc2ccccc2)c(=O)c2nn(-c3ccc(Cl)cc3)c(C)c12	-16.7%
Cc1ccc(C(=O)NNC(=O)c2ccc(NS(=O)(=O)c3cccs3)cc2)s1	-7.4%
CCc1ccc(NC(=O)C2CCN(S(=O)(=O)c3ccc4c(c3)NC(=O)CO4)CC2)cc1	-4.4%
c1ccc(-c2ccc(-c3[nH]ncc3CN3CCC(N4CCSCC4)CC3)cc2)cc1	5.0%
Cc1nnc2c3ccccc3nc(N3CCN(c4cccc(Cl)c4)CC3)n12	-1.9%
O=C1Nc2ccc([N+](=O)[O-])cc2OC1CCN1CCCC1 (configuration not stated)	-11.8%
O=C(C1CCCN(Cc2cccs2)C1)N1CCCCCC1 (configuration not stated)	2.4%
CN1c2ccccc2C2(C)CCCC3=Cc4cccc([N+](=O)[O-])c4OC312 (configuration not stated)	-0.1%
CSC1=C(C#N)C(c2ccccc2Cl)C2=C(N1)c1ccccc1C2=O (configuration not stated)	?
O=C(O)CN(c1ccccc1[N+](=O)[O-])S(=O)(=O)c1ccccc1	-24.3%
C=CCN=C(NC#N)SCCc1ccccc1	23.0%
COc1ccccc1NC(=O)C(C)n1cnc2c(oc3nc4c(cc32)CCCC4)c1=O (configuration not stated)	?
Cc1ccc(NC(=O)CN2C(=O)N/C(=C\c3cccn3-c3cccc(C(=O)O)c3)C2=O)cc1	12.5%
CCC(C)(C(=O)NC1CCCCC1)N(C)C(=O)c1ccc2c(c1)OCO2 (configuration not stated)	-0.3%
CSc1ccc(C(=O)C2CCCN(C(=O)CN3CCOC3=O)C2)cc1 (configuration not stated)	?
COc1cc(NC(=O)CSc2nncn2C)c(C)cc1[N+](=O)[O-]	-5.9%
O=C(NNC(=O)c1cccc(-n2cccc2)c1)c1ccccc1	7.1%
Cn1c(CNS(=O)(=O)c2ccc(F)cc2)n[nH]c1=S	-3.5%
O=C(Nc1ncc(Cc2ccccc2)s1)C1COc2ccccc2O1 (configuration not stated)	3.6%
COc1ccc(CNC(=O)Cn2ccc3cc(S(=O)(=O)N4CCCCCC4)ccc32)cc1OC	0.0%
CC1(C)CCC[C@@](C)([C@H]2CC[C@]3(C)[C@@H]2[C@H](O)CC2[C@@]4(C)CC[C@H](O)C(C)(C)[C@@H]4[C@@H](O)C[C@]23C)O1 (some centres not stated)	-5.5%
O=C(NC(=S)NCc1cccnc1)c1cc2ccccc2o1	-2.8%
CC(=O)N1CCN(Cc2nc3cc(NC(=O)c4ccc(F)cc4)ccc3n2C)CC1	-21.1%
COc1ccc(OCC(=O)Nc2ccc3c(c2)nc(CN2CCCC2)n3C)cc1	3.0%
COc1ccc(/C=C2\Sc3ccc(C(=O)N4CCCC4)cc3N(C)C2=O)cc1OC	13.4%
O=C(/C=C/c1ccc([N+](=O)[O-])cc1)OCC(=O)N1c2ccccc2Sc2ccccc21	-16.5%
CC(NC(=O)C1CCN(C(=O)c2ccc(-n3ccc4ccccc43)s2)CC1)c1ccccc1 (configuration not stated)	8.4%
COc1ccccc1CNC(=O)c1ccc2c(c1)N(Cc1cccc(Cl)c1)C(=O)c1ccccc1S2(=O)=O	7.9%
COc1ccc(C(=O)N2CCC(C(=O)Nc3ccccc3C)CC2)cc1OC	-11.9%
The listing continues.
SMILES	VDR inh
COc1ccc(C(=O)Nc2cc(C(C)=O)c(C)oc2=O)cc1	3.0%
Cc1ccc(/C=N/NC(=O)c2cc3c(ccc4ccccc43)o2)cc1[N+](=O)[O-]	-8.9%
Clc1ccc(-c2nc(/C=N/N3CCOCC3)c3ccccn23)cc1	-25.4%
COc1ccc(C(CNC(=O)c2cccc(S(=O)(=O)Nc3cccc(C)c3)c2)N2CCOCC2)cc1 (configuration not stated)	?
Oc1ccc(C2Oc3cc(O)cc(O)c3CC2O)cc1 (configuration not stated)	-13.7%
Cc1ccc(/C=C/c2ccc(=O)n(Cc3ccccc3Cl)n2)cc1	10.9%
CC(=O)NCCNc1cc(-c2ccccc2CN(C)C)ncn1	-12.9%
Clc1ccc(Cn2cnc3ccccc32)cc1	-6.0%
Cc1nn(C)cc1C1Nc2ccccc2C(=O)N1O (configuration not stated)	-1.2%
c1ccc(-n2ncc(-c3nn[nH]n3)n2)cc1	8.5%
COc1cccc(NC(=O)CSc2nnc(NC(=O)C3CC3)s2)c1	7.3%
Cc1ccc(NC(=O)CCCNC(=O)c2ccc(Cl)cc2)nc1	-19.5%
CCOc1ccccc1N	-2.8%
O=C(CSC1=NCCS1)Nc1ccc2ccccc2c1	-3.2%
Cc1ccccc1OCC(=O)Nc1ccccc1OCc1cc(=O)n2ccccc2n1	17.1%
COc1ccc(/C=N/NC(=O)CC2N=C(Cc3ccccc3)NNC2=O)cc1OC (configuration not stated)	2.2%
CC(=O)Cn1ncc(N2CCOCC2)c(Br)c1=O	-19.9%
O=C(O)CC(NC(=O)C1CCCCC1)c1cc([N+](=O)[O-])ccc1Cl (configuration not stated)	-15.0%
Cc1ccc(-n2c(Cc3cccn3C)nnc2SCC(=O)N2CCN(c3ccccc3)CC2)cc1	-2.1%
Cc1cc(C)c2c(CC(=O)Nc3ccc(S(=O)(=O)Nc4ncccn4)cc3)coc2c1	4.3%
COc1ccc(CN(C(=O)Nc2ccc(C)c(F)c2)C2CCN(C(C)=O)CC2)cc1	6.5%
CCOc1ccc2c(c1)sc1nc(=O)n(-c3ccc(Cl)c(Cl)c3)c(=O)n12	-8.3%
CN(C)c1cc2c(cc1NS(=O)(=O)c1ccccc1)n(C)c(=O)n2C	-6.8%&5.1%
COc1ccc(CCNc2nc(C)nc3c2nnn3Cc2ccccc2)cc1OC	4.0%
COc1ccc(C)c2sc(NC(=O)c3ccc(S(=O)(=O)N4CCCC4)cc3)nc12	5.0%
NNC(=O)c1cc(C23CC4CC(CC(C4)C2)C3)nc2ccccc12	-12.9%
CO/N=C/NC(=O)c1c(OC)ccnc1Oc1cccc(C(F)(F)F)c1	0.3%
CSCCC(NC(=O)/C(=C/c1ccc(F)cc1)NC(C)=O)C(=O)O (configuration not stated)	-8.4%
Cc1ccccc1C(=O)NC1CCCCCCC1	-18.3%
CNC[C@@H]1Oc2c(NS(C)(=O)=O)cccc2C(=O)N([C@@H](C)CO)C[C@H]1C	-7.6%
Cc1cccc(OCC(O)CN2CCN(CCN3C(=O)c4cccc5cccc(c45)C3=O)CC2)c1C (configuration not stated)	-8.2%

Laid out differently: results already given
compound,VDR inh
O=C(CSC1=NCCS1)Nc1ccc2ccccc2c1,-3.2%
Cc1ccccc1OCC(=O)Nc1ccccc1OCc1cc(=O)n2ccccc2n1,17.1%
COc1ccc(/C=N/NC(=O)CC2N=C(Cc3ccccc3)NNC2=O)cc1OC (configuration not stated),2.2%
CC(=O)Cn1ncc(N2CCOCC2)c(Br)c1=O,-19.9%
O=C(O)CC(NC(=O)C1CCCCC1)c1cc([N+](=O)[O-])ccc1Cl (configuration not stated),-15.0%
Cc1ccc(-n2c(Cc3cccn3C)nnc2SCC(=O)N2CCN(c3ccccc3)CC2)cc1,-2.1%
Cc1cc(C)c2c(CC(=O)Nc3ccc(S(=O)(=O)Nc4ncccn4)cc3)coc2c1,4.3%
COc1ccc(CN(C(=O)Nc2ccc(C)c(F)c2)C2CCN(C(C)=O)CC2)cc1,6.5%
CCOc1ccc2c(c1)sc1nc(=O)n(-c3ccc(Cl)c(Cl)c3)c(=O)n12,-8.3%
CN(C)c1cc2c(cc1NS(=O)(=O)c1ccccc1)n(C)c(=O)n2C,-6.8%&5.1%
COc1ccc(CCNc2nc(C)nc3c2nnn3Cc2ccccc2)cc1OC,4.0%
COc1ccc(C)c2sc(NC(=O)c3ccc(S(=O)(=O)N4CCCC4)cc3)nc12,5.0%
NNC(=O)c1cc(C23CC4CC(CC(C4)C2)C3)nc2ccccc12,-12.9%
CO/N=C/NC(=O)c1c(OC)ccnc1Oc1cccc(C(F)(F)F)c1,0.3%
CSCCC(NC(=O)/C(=C/c1ccc(F)cc1)NC(C)=O)C(=O)O (configuration not stated),-8.4%
Cc1ccccc1C(=O)NC1CCCCCCC1,-18.3%
CNC[C@@H]1Oc2c(NS(C)(=O)=O)cccc2C(=O)N([C@@H](C)CO)C[C@H]1C,-7.6%
Cc1cccc(OCC(O)CN2CCN(CCN3C(=O)c4cccc5cccc(c45)C3=O)CC2)c1C (configuration not stated),-8.2%

Screens as filed in PubChem BioAssay.
